From PubChem BioAssay
PV pol inh: inhibitors of poliovirus RNA polymerase binding and polymerization; P03300; poliovirus polymerase elongation, fluorescence polarization; hits give low values; % elongation, % (compound at 16.7 µg/mL); 0.66% of 150,000 active; in the data active means % elongation below about 90%; further: some results filed as inactive read as strong as hits
Target sequence (P03300 1749-2209 limits assumed): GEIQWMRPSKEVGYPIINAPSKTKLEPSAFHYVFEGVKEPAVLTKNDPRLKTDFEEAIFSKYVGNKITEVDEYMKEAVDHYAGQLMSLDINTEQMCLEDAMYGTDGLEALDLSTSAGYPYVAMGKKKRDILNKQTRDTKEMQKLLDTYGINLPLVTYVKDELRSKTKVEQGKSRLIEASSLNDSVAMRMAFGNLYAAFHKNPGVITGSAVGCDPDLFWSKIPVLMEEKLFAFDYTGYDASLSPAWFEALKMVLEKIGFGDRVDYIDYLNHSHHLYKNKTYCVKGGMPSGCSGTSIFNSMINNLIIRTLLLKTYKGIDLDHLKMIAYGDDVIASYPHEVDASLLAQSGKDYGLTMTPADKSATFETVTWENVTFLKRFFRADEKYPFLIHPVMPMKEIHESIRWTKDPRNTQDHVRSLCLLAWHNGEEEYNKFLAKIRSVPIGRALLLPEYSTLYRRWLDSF
Mtb MbtI inh: MbtI salicylate synthase inhibition; P9WFX0; purified MbtI enzyme, fluorescence intensity read-out; inhibition, %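 (about 17 µg/mL by stock and volumes)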; 0.89% of 100,000 active; AID 493033;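 active means above 50% in both replicates, above 80% if mildly self-fluorescent; inactive means the rest, strongly fluorescent compounds included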;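 further: 0% = mean of negative and 100% = mean of positive controls; one replicate is shown; some compounds called inactive have numbers as strong as hits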
MenB inh: Mtb MenB enzyme inhibition; MenB enzyme assay, absorbance read-out; some hits fall short of the stated cut; P9WNP5; AID 540299; 0.43% of 100,000 active; inhibition, %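 (about 12 µg/mL by stock and volumes)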;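 active means mean of two replicates above 30%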;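 further: 0% = no compound and 100% = wells with inactive enzyme; the first replicate is given; strong numbers were not always called active; inactives centre near -10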
Target sequence (P9WNP5 whole entry, looked up): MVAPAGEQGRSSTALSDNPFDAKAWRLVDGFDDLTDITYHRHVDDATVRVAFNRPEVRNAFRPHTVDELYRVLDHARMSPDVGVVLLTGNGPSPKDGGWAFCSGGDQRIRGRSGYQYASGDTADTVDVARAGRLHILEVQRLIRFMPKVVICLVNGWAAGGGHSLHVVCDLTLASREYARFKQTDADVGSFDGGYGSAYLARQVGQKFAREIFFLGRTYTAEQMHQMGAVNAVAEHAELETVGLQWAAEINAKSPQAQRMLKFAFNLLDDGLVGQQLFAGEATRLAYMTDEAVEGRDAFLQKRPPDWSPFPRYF
PV pol inh intensity: recorded beside PV pol inh, whose call it bears; % elongation; measured here: total intensity read-out; formula for this scale not given here;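 total fluorescence in place of polarization; lower means less elongation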
Numbers without * were called inactive; · = not tested or not shown.

cpd	Molecule	PV pol inh	PV pol inh intensity	Mtb MbtI inh	MenB inh
1	COc1ccc(N2CCN(c3ccc(NS(=O)(=O)c4ccccc4)nn3)CC2)cc1	106.0	108.0	-8.9	-31.8
2	CCc1nc2cccnc2n1-c1ccc(CC(=O)N2CCCCCC2)cc1	107.0	101.0	-0.2	-30.1
3	COc1ccccc1/C=C/C(=O)Nc1ccccn1	102.0	103.0	20.1	12.5
4	O=C(NCCc1ccco1)c1ncoc1-c1cccs1	99.0	104.0	103.2	1.6
5	O=C1CSCC(=O)N1c1ccc(OC(F)(F)F)cc1	103.0	102.0	26.9	-12.5
6	COC(=O)c1ccc(CSc2nnc(-c3ccccc3)o2)o1	102.0	104.0	5.6	-36.8
7	Cc1nn(-c2ccccc2)c(Cl)c1C(=O)Nc1sc2c(c1C(N)=O)CCCC2	100.0	102.0	5.7	8.0
8	Cn1c(SCC2CCCCO2)nnc1-c1ccccc1 (configuration not stated)	104.0	101.0	-8.0	·
9	COc1cccc(CNC(=O)c2ccc(N3CCCC3=O)cc2)c1OC	102.0	106.0	1.3	8.3
10	c1ccc2c(c1)nc1n2CCN1CCNC1CCCCC1	102.0	101.0	-0.8	14.9
11	COc1cc(Nc2nc3ccccc3c3nnc(C)n23)cc(OC)c1OC	103.0	103.0	-21.9	-25.9
12	Cc1cc(OCC(=O)NCCO)cc(C)c1Cl	99.0	101.0	1.5	2.3
13	CCCNC(=O)c1sc2nc(-c3ccccc3)cn2c1C	97.0	103.0	-1.0	-8.6
14	N#Cc1ccc(NC(=O)CCCSc2nc3ccccc3s2)cc1	96.0	103.0	-14.2	-26.4
15	C=CCn1c(Sc2ncc(C#N)c(N)n2)nnc1-c1cccs1	103.0	100.0	12.4	-7.2
16	Cc1c(C(=O)NN)nn(-c2ccccc2)c(=O)c1C#N	104.0	103.0	·	-2.3
17	CN1/C(=C\C(=O)COC(=O)C2CC(=O)N(Cc3ccccc3)C2)C(C)(C)c2ccccc21 (configuration not stated)	107.0	110.0	-58.0	-18.7
18	O=C(c1ccccc1)N1CC(=O)N2CCc3ccccc3C2C1 (configuration not stated)	106.0	102.0	-3.5	-5.4
19	O=C(Nc1cccc2ccccc12)C12CC3CC(CC(C3)C1)C2	100.0	105.0	6.1	9.2
20	CC(Sc1nnc(-c2ccco2)n1-c1ccccc1)C(=O)c1ccc(Br)cc1 (configuration not stated)	94.0	89.0	0.5	-26.4
21	CCCN1Cc2cccc(C(=O)N3CCN(c4ccccc4)CC3)c2C1=O	99.0	104.0	2.9	-3.1
22	Cc1ccc2c(=O)cc(-c3ccccc3C(=O)O)oc2c1	101.0	100.0	23.2	17.0
23	CCc1ccccc1N(C)C(=O)Cc1nc(-c2ccc(OC)cc2)no1	104.0	102.0	-10.2	-24.5
24	Cc1cc(=O)n(CC(=O)N2CCc3ccccc32)c2c1c(C)nn2-c1cccc(F)c1	100.0	102.0	-21.4	-4.4
25	CC(C)=NNC(=O)c1c(O)c2ccccc2[nH]c1=O	100.0	99.0	20.9	-21.3
26	C=CCn1c(C(C)Oc2ccc(Cl)cc2Cl)n[nH]c1=S (configuration not stated)	103.0	104.0	38.4	-15.7
27	Nc1nc2nc(-c3ccccc3)cc(-c3ccccc3)n2n1	98.0	104.0	-45.6	-1.7
28	OCCSc1nc(-c2cccs2)nc2ccccc12	104.0	106.0	71.5	-29.3
29	COc1cc2c(cc1OC)C(COc1ccc(F)cc1)N(C(=O)c1ccc(Cl)cc1)CC2 (configuration not stated)	103.0	99.0	20.1	-13.9
30	CC(C)Cn1cc(NC(=O)N2CCCCC2c2cccnc2)c2ccccc2c1=O (configuration not stated)	103.0	98.0	3.8	-29.0
31	O=C(Nc1nccs1)c1ccccc1C(=O)Nc1nccs1	101.0	100.0	·	-12.2
32	Cc1nn2c(Br)c(C34CC5CC(CC(C5)C3)C4)nc2s1	107.0	99.0	-10.3	-31.2
33	CCOC(=O)CSc1nnc(CNc2cccc(C(F)(F)F)c2)n1CC	103.0	99.0	-13.0	-39.2
34	NC(=O)c1c(NC(=O)c2cc(-c3ccccc3)on2)sc2c1CCCC2	90.0	87.0	·	-0.5
35	O=C(COC(=O)C1CC2CCCC(C1)C2=O)NC1CCCc2ccccc21 (configuration not stated)	102.0	104.0	-6.1	-26.5
36	CC(Oc1ccccc1Br)C(=O)N1CCc2ccccc21 (configuration not stated)	103.0	96.0	·	-10.9
37	Cc1ccc2c(c1Br)C(=C(C#N)C#N)C(=O)N2	84.0*	83.0*	-123.7	-53.1
38	CCC(C)(C)NC(=O)c1ccc2c(=O)n3c(nc2c1)CCC3	102.0	97.0	12.1	10.0
39	O=C(CN1C(=O)c2ccccc2S1(=O)=O)c1ccc2c(c1)OCCO2	101.0	102.0	-8.1	8.9
40	CCN1C(=O)c2ccccc2S(=O)c2ccc(C(=O)NCCN3CCN(Cc4ccccc4)CC3)cc21 (configuration not stated)	102.0	95.0	3.1	-28.7
41	Cn1c(-c2ccc3c(c2)OCO3)cn2cc(-c3ccc(Br)cc3)nc12	98.0	101.0	-8.4	-1.7
42	Cc1nc(CSc2nnc(Cc3cccc4ccccc34)n2N)cs1	100.0	109.0	56.8*	-28.3
43	CN(C)/C=N/S(=O)(=O)c1cc(C(F)(F)F)cc(C(F)(F)F)c1	100.0	94.0	2.6	9.4
44	COC(=O)c1ccccc1NC(=O)CN(c1ccccc1)S(C)(=O)=O	100.0	99.0	-32.3	-27.6
45	CCOc1ccc(N=CNc2ccc(OCC)cc2)cc1	101.0	107.0	4.2	-17.8
46	O=C1OCc2ccccc21	101.0	102.0	20.0	11.0
47	CCOC(=O)CNc1nn2c(=O)c3ccc(C(=O)OC)cc3nc2s1	100.0	100.0	42.0	-8.2
48	O=c1ccc(S(=O)(=O)N2CCCC2)cn1Cc1nc2ccccc2s1	102.0	109.0	-3.5	-5.1
49	O=C(COC(=O)Cc1ccsc1)Nc1ccc(C(F)(F)F)cc1	100.0	103.0	-8.1	·
50	Cc1nc2nc(N3C(=O)c4ccc(C(=O)O)cc4C3=O)[nH]n2c(=O)c1Cc1ccccc1	101.0	104.0	-10.3	4.7

(continued)
cpd	Molecule	PV pol inh	PV pol inh intensity	Mtb MbtI inh	MenB inh
51	CCN1/C(=C/c2sc3ccccc3[n+]2CCO)Sc2ccccc21	102.0	103.0	3.6	-181.0
52	NC(N)=NS(=O)(=O)c1ccc(NC(=O)c2ccc(Cl)cc2)cc1	105.0	104.0	·	1.2
53	CCOC(=O)c1c(Cl)[nH]c2ccccc2c1=O	102.0	103.0	11.6	-14.6
54	FC(F)(F)c1nc(NC2=NCCCCC2)n[nH]1	102.0	104.0	-5.3	-51.0
55	CC(Nc1cccc(C(=O)NC2CC2)c1)C(=O)N1CCNC1=O (configuration not stated)	106.0	103.0	-3.8	-2.4
56	COc1cccc(CNC(=O)c2ccc(S(=O)(=O)N3CCCC3)cc2)c1	100.0	103.0	-7.2	9.9
57	CCOC(=O)c1sc(N)c(C#N)c1CSc1nc(-c2ccccc2)cs1	136.0	141.0	1.9	-25.0
58	Cc1ccc(-n2c(-c3ccco3)nc3c(cnn3-c3ccccc3C)c2=O)cc1F	102.0	97.0	-6.1	-22.6
59	CCOC(=O)c1ncn(-c2ccccc2)n1	102.0	106.0	4.2	-10.0
60	O=C(C1CCCO1)N1CCc2ccccc21 (configuration not stated)	104.0	110.0	-6.6	-7.6
61	O=C(Nc1ccc2oc(-c3c(F)c(F)c(F)c(F)c3F)nc2c1)c1cccs1	101.0	101.0	-5.2	-25.1
62	N#Cc1ccccc1OCC(=O)NC12CC3CC(CC(C3)C1)C2	103.0	107.0	16.1	-21.0
63	Cc1cc[n+](Cc2ccccn2)c(N)c1	100.0	95.0	·	1.1
64	O=C(c1ccccc1)N(C(=O)c1ccccc1)c1ccccn1	103.0	100.0	-8.1	-11.1
65	CCN(C(=O)/C=C/c1cccs1)C1CCCCC1	103.0	98.0	3.3	·
66	Cc1cccn2c(=O)c(/C=N/NC(N)=S)c(N3CCCC3)nc12	97.0	125.0	8.3	-24.9
67	Cc1c(C(=O)N(C)C2CCCCC2)sc2nc(-c3ccc(F)cc3)cn12	105.0	108.0	-6.5	-18.8
68	O=C(c1cnn(-c2ccccc2)c1-n1cccc1)N1CCc2ccccc2C1	105.0	98.0	-6.6	-35.3
69	Cc1ccccc1NC(=O)CN(C)S(=O)(=O)c1cccs1	101.0	104.0	-3.8	-7.0
70	CC(C)c1ccc(N2CC(O)=C(c3nc4ccccc4[nH]3)C2=N)cc1	102.0	107.0	50.1	-10.1

Molecules above containing a COOH group:
cpd	Molecule	PV pol inh	PV pol inh intensity	Mtb MbtI inh	MenB inh
22	Cc1ccc2c(=O)cc(-c3ccccc3C(=O)O)oc2c1	101.0	100.0	23.2	17.0
50	Cc1nc2nc(N3C(=O)c4ccc(C(=O)O)cc4C3=O)[nH]n2c(=O)c1Cc1ccccc1	101.0	104.0	-10.3	4.7

Some of the entries so far, field by field:
#64 O=C(c1ccccc1)N(C(=O)c1ccccc1)c1ccccn1
  PV pol inh: 103.0
  PV pol inh intensity: 100.0
  Mtb MbtI inh: -8.1
  MenB inh: -11.1

#67 Cc1c(C(=O)N(C)C2CCCCC2)sc2nc(-c3ccc(F)cc3)cn12
  PV pol inh: 105.0
  PV pol inh intensity: 108.0
  Mtb MbtI inh: -6.5
  MenB inh: -18.8

Continuation:
cpd	Molecule	PV pol inh	PV pol inh intensity	Mtb MbtI inh	MenB inh
71	c1ccc(Oc2ccc(N=NN3CCCCC3)cc2)cc1	102.0	103.0	-2.5	-9.8
72	Cc1cccc(NC(=O)CO/N=C/c2cccs2)c1	107.0	115.0	5.6	-14.7
73	CC(C)OC(=O)CC12CN(C)CC(CC(=O)OC(C)C)(CN(C)C1)C2=O	101.0	102.0	-7.2	-0.7
74	CCC(Cc1ccccc1)NC(C)=O (configuration not stated)	101.0	101.0	-14.9	-21.5
75	CCOC(=O)c1csc(-c2sccc2Br)n1	104.0	105.0	4.1	-8.6
76	CCc1nnc(SCC(=O)O)o1	105.0	103.0	-11.8	10.0
77	Cc1ccc(C(=O)N/C(N)=N/c2nc3ccccc3s2)cc1	101.0	100.0	14.8	-15.1
78	CN(C)c1ccc(C=C2C(=O)OC(C)(C(C)(C)C)OC2=O)cc1 (configuration not stated)	101.0	116.0	-1.6	-4.2
79	CCN(c1ccccc1)c1nc2ccccc2n2nnnc12	100.0	108.0	10.0	-18.7
80	Cc1ccc(S(=O)(=O)N2CCC[C@H]2C(=O)OCC(=O)N2c3ccccc3NC(=O)C2(C)C)cc1	102.0	103.0	-8.4	-36.9
81	CN1C(=O)NC(=O)/C(=C/c2ccc(N(C)C)cc2)C1=O	97.0	103.0	-4.3	8.6
82	CC1=NN(c2ccccc2)C(=O)C1(C)N (configuration not stated)	105.0	101.0	-1.2	-10.3
83	CCOC(=O)C1CCN(c2nc3ccccc3nc2C(C#N)C(=O)NCCc2ccc(OC)c(OC)c2)CC1 (configuration not stated)	98.0	121.0	2.6	-25.5
84	CCCSc1nc(C)c(CC(=O)O)c(=O)[nH]1	101.0	101.0	13.4	-39.0
85	C/C(=N\NC(=O)c1ccco1)c1ccc(C)o1	98.0	109.0	31.9	-24.8
86	NC(=O)NC(=O)C[n+]1ccc(/C=N/O)cc1	106.0	109.0	0.3	-5.5
87	Cc1cn([C@H]2C[C@H](N=[N+]=[N-])[C@@H](CO)O2)c(=O)[nH]c1=O	100.0	100.0	-20.7	1.4
88	O=C(NCCCO)Nc1ccc2nc(-c3ccco3)c(-c3ccco3)nc2c1	67.0	120.0	15.4	-157.1
89	FC(F)(F)c1cc(-c2cn3ccccc3n2)cc(C(F)(F)F)c1	109.0	107.0	-56.1	-19.0
90	Cc1cc(=O)oc2cc(NC(=O)c3ccc(OC(F)F)cc3)ccc12	105.0	106.0	4.4	-29.5
91	O=C(Cn1[nH]c(=O)c2ccccc2c1=O)NCCCN1CCCC1=O	106.0	95.0	18.1	-15.2
92	Cc1ccc2c(c1)N(CCO)/C(=C/c1sc3ccccc3[n+]1C)S2	100.0	100.0	5.7	-27.4
93	OC(c1nc2ccccc2[nH]1)C(O)C(O)C(O)c1nc2ccccc2[nH]1 (configuration not stated)	·	·	-9.4	-12.6
94	Cc1ccc(C)c(N2CCN(c3ncnc4onc(-c5ccc(F)cc5)c34)CC2)c1	105.0	102.0	-11.8	-2.8
95	Cc1c(C)n(C)c2ccc(C(=O)O)cc12	102.0	101.0	23.8	-10.0
